# CSC inhib – cancer stem cell viability inhibitors, primary screen, luminescence | AID 2717, 2010 | cancer stem cell-like cells viability | 300,000 compounds, 1.1% hits | inhibition, % at 7.5 µM;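 active = mean at 75% or more and at least half the replicates too; inconclusive = mean and replicates disagree; tested in HMLE shEcad cells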;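 note: 0% = median of negative and 100% = median of positive control wells; the first replicate is given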
# PABP FP inh – PABP poly(A) RNA binding inhibitors, primary screen, biochemical, fluorescence polarization, uHTS. Polyadenylate-binding protein 1 (Homo sapiens), P11940. inhibition, % at 35 µM. 290,000 compounds, 1% hits;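 active = 50% or more with normal probe brightness, or confirmed in later tests; inconclusive = above 50% with abnormal brightness, or retests that disagree; inactive = below 50% or failed in later tests; about a fifth of its hits are not listed in these tables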;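 note: calls also rest on retests at 20 µM and on dose response follow-up; controls were probe without protein and protein plus probe with vehicle; some compounds called inactive have numbers as strong as hits; many hits fall short of the cut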
# eIF4H inh – human eIF4H binding inhibitors, primary screen, translation initiation inhibitor project, biochemical, uHTS, fluorescence polarization; 290,000 compounds, 0.94% hits; inhibition, % at 35 µM; Eukaryotic translation initiation factor 4H (Homo sapiens), Q15056; eIF4H fluorescence polarization binding assay;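 active = 50% or more with normal probe brightness, or confirmed in later tests; inconclusive = above 50% with abnormal brightness, or retests that disagree; inactive = below 50% or failed in later tests; about a fifth of its hits are not listed in these tables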;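 note: calls also rest on retests at 20 µM and on dose response follow-up; 0% = protein and probe with vehicle and 100% = probe without protein; strong numbers were not always called active; many hits fall short of the cut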
# Env fusion inh – inhibitors of HIV-1 Env-driven cell-cell fusion, primary screen, HeLa-JRFL effector, CEM21 target cells, luciferase | inhibition, % at 12.3 µM | 360,000 compounds, 1.1% hits;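 active = mean replicate inhibition score of at least 50 and every replicate individually at or above 50; inconclusive = only one of the two criteria met; inactive = mean below 50 and not all replicates reaching 50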;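 note: 0% = plate neutral controls and 100% = maraviroc near 300 nM; one replicate is shown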
# MT1-MMP act inh – blockers of MT1-MMP proenzyme processing, primary screen, HT1080 RFP-PRO-GFP cells, GFP/RFP fluorescence. 360,000 compounds, 0.061% hits. Matrix metalloproteinase-14 (Homo sapiens), P50281. GFP/RFP ratio fluorescence, overnight; percent of plate control window, DMSO zero. AID 651647, 2012. GFP/RFP ratio change, % at 20 µM;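 active = GFP/RFP ratio change of at least 30% with cell ATP level not reduced by more than half and red fluorescence within 50% of control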; note: strong numbers were not always called active
#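 Material: RFP-PRO-GFP reporter HT1080 cells. Dosing: single-point 20 µM compound, 1% DMSO. Controls: DMSO and RFP-L50D-GFP cell wells. Timing: cells overnight before dosing, compound overnight, 37 °C, 5% CO2. Measure: GFP/RFP fluorescence ratio.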
# UUG fidelity – modulators of yeast start codon fidelity, primary screen, whole organism, S. cerevisiae, single point, plate reader. S. cerevisiae UUG-firefly luciferase reporter, luminescence/redox ratio. activity score, % at 18.7 µM. 350,000 compounds, 0.13% hits. AID 602363, 2012;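 active = replicate mean at a twofold rise or more, about +100% in these data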;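 note: firefly luciferase made from a UUG start codon reports start codon fidelity; reporter light over untreated wells divided by growth signal over untreated wells; some hits fall short of that in this replicate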
# Rce1 inhib – yeast Rce1p protease inhibitors, primary screen, biochemical, fluorescence, cell-free homogeneous; CAAX prenyl protease 2 (Saccharomyces cerevisiae (strain ATCC 204508 / S288c)), Q03530; calls only; 290,000 compounds, 0.27% hits; yeast membranes, quenched prenylated peptide cleavage fluorescence;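 active = fall in fluorescence gain of 50% or more versus controls, with final raw signal at or below 3038400; inconclusive = same 50% fall but final raw signal above 3038400; inactive = fall in fluorescence gain under 50%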;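 note: plate controls were neutral control wells for no effect and wells lacking membranes for full effect; tested at 10 µM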
# Target sequence (Q03530 whole entry, looked up): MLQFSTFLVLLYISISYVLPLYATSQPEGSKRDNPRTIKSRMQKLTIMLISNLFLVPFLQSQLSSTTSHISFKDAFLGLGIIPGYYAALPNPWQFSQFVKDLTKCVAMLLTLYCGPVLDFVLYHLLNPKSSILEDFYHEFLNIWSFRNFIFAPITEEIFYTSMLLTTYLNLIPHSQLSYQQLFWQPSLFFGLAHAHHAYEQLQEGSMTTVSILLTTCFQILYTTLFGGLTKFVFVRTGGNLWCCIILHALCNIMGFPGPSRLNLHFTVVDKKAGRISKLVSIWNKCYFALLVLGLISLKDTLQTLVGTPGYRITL
# eIF4H inh retest – further read-out of eIF4H inh, marked with its call; inhibition, %; compound at 20 µM; confirmation average;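 mean of two retest wells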
# PABP FP inh retest – further read-out of PABP FP inh, marked with its call; inhibition, %; compound at 20 µM; confirmation repeats;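 mean of two retest wells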
# MT1-MMP act inh RFP – second read-out of MT1-MMP act inh, no call of its own (marks repeat the call); RFP signal change, %; measured here: RFP expression control read;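 0 = vehicle wells; hits needed this value within 50% of zero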
# The depositor's hits bear a star; i = inactive; ? = inconclusive; . = no result given; + = active, no number; & = joins results of further samples; [ ] = another dose, or the depositor's remark.
SMILES,CSC inhib,PABP FP inh,eIF4H inh,Env fusion inh,MT1-MMP act inh,MT1-MMP act inh RFP,UUG fidelity,Rce1 inhib,others
CN(C)C(CNC(=O)C1CCN(S(=O)(=O)c2cccc(Cl)c2Cl)CC1)c1ccccc1 (configuration not stated),20,9,-1,-3,1,3,9,i,
CCCCC1=CC2=CC(=O)C(C)(OC(=O)CC)C(=O)C2=CN1CC(C)C (configuration not stated),-1,33,26,-35,5,7,0,i,
NS(=O)(=O)c1ccc(NC2(C(=O)O)CCCC2)cc1,-12,-6,-4,17,-2,1,-17,i,
N#C/C(=C\c1ccc[nH]1)C(=O)Nc1ccccc1F,-17,3,0,-78,-1,0,-12,i,
CCN(CC(=O)NCc1cccs1)C(=O)/C=C/c1ccc(F)cc1,.,.,.,-70,0,4,1,.,
COc1ccc(C2=NS(=O)(=O)N(C)C(C(=O)Nc3ccc4c(c3)OCO4)=C2)cc1,3,-5,-7,22,12,-7,14,.,
COc1ccc2oc(=O)c(C(=O)N3CCN(c4ccccc4C)CC3)cc2c1,-4,12,-1,-52,-10,1,-17,i,
CCOC(=O)C1(CC2CCCCO2)CCN(Cc2nc(C(C)C)cs2)CC1 (configuration not stated),23,-3,7,20,3,-7,.,i,
Cc1ccc(-n2ccnc2SCC(=O)O)cc1C,1,-1,6,2,1,5,-13,i,
CCC(=O)NC(=S)Nc1cccc(Cl)c1N1CCCCC1,85*,-3,3,73*,-13,-17,-20,i,
CCCCSc1nn[nH]n1,0,15,-12,.,2,3,-28,i,
Cc1cc(-c2ccc(N3CCOCC3)cc2)nc2ccccc12,-11,62,-4,-106,-9,3,.,i,eIF4H inh retest=-6;PABP FP inh retest=4

# Quoted at random: 6 compounds from above, in no set order.
SMILES,CSC inhib,PABP FP inh,eIF4H inh,Env fusion inh,MT1-MMP act inh,MT1-MMP act inh RFP,UUG fidelity,Rce1 inhib,others
CCCCSc1nn[nH]n1,0,15,-12,.,2,3,-28,i,
COc1ccc2oc(=O)c(C(=O)N3CCN(c4ccccc4C)CC3)cc2c1,-4,12,-1,-52,-10,1,-17,i,
CN(C)C(CNC(=O)C1CCN(S(=O)(=O)c2cccc(Cl)c2Cl)CC1)c1ccccc1 (configuration not stated),20,9,-1,-3,1,3,9,i,
Cc1cc(-c2ccc(N3CCOCC3)cc2)nc2ccccc12,-11,62,-4,-106,-9,3,.,i,eIF4H inh retest=-6;PABP FP inh retest=4
COc1ccc(C2=NS(=O)(=O)N(C)C(C(=O)Nc3ccc4c(c3)OCO4)=C2)cc1,3,-5,-7,22,12,-7,14,.,
NS(=O)(=O)c1ccc(NC2(C(=O)O)CCCC2)cc1,-12,-6,-4,17,-2,1,-17,i,

# The listing continues.
SMILES,CSC inhib,PABP FP inh,eIF4H inh,Env fusion inh,MT1-MMP act inh,MT1-MMP act inh RFP,UUG fidelity,Rce1 inhib,others
N#CC1=C2N=C(N)c3ccccc3N2C2=C(C(=O)CCC2)C1c1cccc(Cl)c1 (configuration not stated),3,4,?,-20,-2,1,-13,i,
COc1ccc(CCNC(=O)COC(=O)Cc2c[nH]c3ccccc23)cc1OC,-4,.,.,-9,-2,1,-13,.,
O=C(/C=C/c1ccccc1)NCCc1ccc2c(c1)OCCO2,-3,-2,2,-19,1,2,.,i,
COc1cccc(C(=O)Nc2ccc(N(C)C)cc2)c1OC,-1,-4,-1,-70,-4,-3,-15,i,
Cc1cc(C2=NNC(=NCCc3ccccc3)SC2)c(C)n1CC1CCCO1 (configuration not stated),-22,-4,-4,-6,0,1,3,i,
COc1ccc(Oc2c(C(F)(F)F)oc3cc(OCC(=O)O)ccc3c2=O)cc1,-12,7,-1,-3,2,3,-15,i,
COc1ccc(S(=O)(=O)NCc2ccccn2)cc1Cl,-10,9,-3,.,-2,0,-14,i,
O=C(COC(=O)/C=C/c1cn(-c2ccccc2)nc1-c1ccc2c(c1)OCCO2)NC1CCS(=O)(=O)C1 (configuration not stated),16,2,-7,-4,-7,0,0,+,
O=S(=O)(Nc1ncnc2scc(-c3ccc(F)cc3)c12)c1cc(F)ccc1F,32,-2,-8,7,-5,-4,.,i,
CN(C(=O)c1cccc(NC(=O)Cc2ccc(NC(=O)C3CCN(C(=O)CCc4ccccc4)CC3)cc2)c1)C1CCCCC1,.,.,.,22,-4,-12,-13,.,
CCOC(=O)c1ccc(NC(=O)CSc2nc3ncccc3[nH]2)cc1,.,2,0,10,2,-6,-5,i,
CN(CC(=O)Nc1ccc(Cl)c(Cl)c1)C(=O)/C=C/c1ccc(F)cc1,13,-8,-16,6,-1,-1,-8,i,
Cc1ccc(S(=O)(=O)N2CCC(C(=O)OCC(=O)N(Cc3ccccc3)C(C)(C)C)CC2)cc1C,-9,.,.,-6,3,-4,-16,i,
Cc1ccc(S(=O)(=O)N2CCN(C(=O)CN3C(=O)c4ccccc4C3=O)CC2)c(C)c1,-10,.,.,-10,0,3,-13,.,
COc1ccc(C(=O)Nc2c(Cl)cc(Cl)cc2C(=O)N2CCOCC2)cc1,-4,-5,-4,-3,2,3,.,i,
Cc1nnc(SCc2ccc([N+](=O)[O-])cc2)[nH]c1=O,-4,-3,3,13,3,5,.,i,
Cc1ccc(N=Cc2c(O)ccc3ccccc23)cc1F,4,10,4,-4,1,3,.,i,
NC(=O)CNC(=O)[C@@H]1CC2(CC(c3ccccc3)=NO2)CN1C(=O)c1ccc(Br)cc1 (some centres not stated),0,-2,-10,-10,-3,-1,-17,i,
Cc1ccc(NC(=O)c2oc3c(c2C)C(=O)CC(C)(C)C3)cc1,4,-4,-14,-2,1,3,-4,i,
CCOC(=O)c1cc(NC(=O)c2ccc(OC)cc2)c(=O)oc1-c1ccccc1,0,1,-4,55,4,-6,5,i,
NNC(=O)c1oc2nc(-c3ccco3)cc(-c3ccco3)c2c1N,2,?,?,-5,-95,4,-4,i,
Cc1cc(C)c2nc(N(CCCN(C)C)C(=O)c3ccc4c(c3)OCCO4)sc2c1,-12,.,.,-18,-2,-1,-4,i,
CCCc1nc2ccccc2c(C(=O)OCC(=O)NC2CC2)c1CC,-5,.,.,.,1,-2,-2,.,
CCOC(=O)C1CN(S(=O)(=O)c2ccc(Cl)cc2)c2cc(S(=O)(=O)CC)ccc2O1 (configuration not stated),-8,1,-5,6,-1,1,.,i,
Cc1ccc(CCNC(=O)C2CCN(S(=O)(=O)c3cccc4cccnc34)CC2)cc1,-20,.,.,-1,-7,-2,3,i,
C=CCn1c(SCc2c(C)noc2C)nc2sc3c(c2c1=O)CCC(C)C3 (configuration not stated),-2,-1,-3,.,8,-11,-7,i,
CC(C)(C)OC(=O)N1CCC(NC(=O)c2nc[nH]c2C(=O)NCC(=O)OCc2ccccc2)CC1,1,1,3,-44,-2,5,-2,i,
O=S(=O)(NN=C1CCCCCC1)c1ccc(Cl)cc1,-5,-3,-7,-3,-3,1,-12,i,
CCCC(=O)Nc1cc(C)c(NC(=O)c2ccco2)cn1,-7,-8,-5,-11,-2,0,-12,i,
Cc1ccc(-c2noc(CN3CCC(C(N)=O)CC3)n2)cc1,-13,18,-6,-24,-4,1,-6,i,
Cc1cccc(NS(=O)(=O)c2ccc(C)c(C(=O)N(C)C3CCN(C)CC3)c2)c1,.,.,.,-13,-1,5,9,.,
Cc1ccc(-n2ncc3c2CCCC3NC(=O)CCCN2CCCCC2=O)cc1C (configuration not stated),-1,8,-5,-16,1,-7,4,i,
CNC(=S)N1CCc2ccccc2C1,11,83,-5,24,2,5,.,i,eIF4H inh retest=-4;PABP FP inh retest=5
Cc1cccc(OCC(=O)OC(C)CN2CCCCC2)c1 (configuration not stated),-18,8,3,-3,-1,0,-11,i,
O=S(=O)(Nc1ccncc1)c1cc(Cl)ccc1Cl,-8,-2,-6,-3,-3,1,0,i,
Cc1ccc(C(=O)CSc2n[nH]c(-c3ccco3)n2)cc1C,-9,9,27,-118,1,1,-14,i,

# In the list so far, these contain a tert-butyl group.
SMILES,CSC inhib,PABP FP inh,eIF4H inh,Env fusion inh,MT1-MMP act inh,MT1-MMP act inh RFP,UUG fidelity,Rce1 inhib,others
Cc1ccc(S(=O)(=O)N2CCC(C(=O)OCC(=O)N(Cc3ccccc3)C(C)(C)C)CC2)cc1C,-9,.,.,-6,3,-4,-16,i,
CC(C)(C)OC(=O)N1CCC(NC(=O)c2nc[nH]c2C(=O)NCC(=O)OCc2ccccc2)CC1,1,1,3,-44,-2,5,-2,i,

# Further records:
SMILES,CSC inhib,PABP FP inh,eIF4H inh,Env fusion inh,MT1-MMP act inh,MT1-MMP act inh RFP,UUG fidelity,Rce1 inhib,others
COc1cc(/C=C2\C(=N)N3N=C(S(C)(=O)=O)SC3=NC2=O)ccc1OCCOc1ccccc1C,22,65*,88*,-10,1,-4,-6,i,
COc1ccc(/C=N/n2c(SC)nnc2-c2ccccc2)cc1C,-16,-7,0,.,-6,-3,1,i,
CCCCN(C)C(=O)C1CCCN(S(=O)(=O)c2ccc3c(c2)oc(=O)n3C)C1 (configuration not stated),-4,-8,0,-18,0,0,7,i,
O=C(c1ccc2nc(N3CCOCC3)sc2c1)N1CCCC1,3,6,9,1,-1,2,-11,i,
Cc1c(C(C)(C)C)s/c(=N/S(=O)(=O)c2ccccc2)n1C,-1,-7,85,-11,-3,0,-5,i,eIF4H inh retest=-5;PABP FP inh retest=34
O=C(NCc1ccc2c(c1)OCO2)c1c(O)nc2sccn2c1=O,4,.,.,.,9,2,-8,i,
C[C@@H]1CN([C@H](C)CO)C(=O)c2cc(-c3ccc(C(=O)N(C)C)cc3)cnc2O[C@@H]1CN(C)C(=O)c1cccnc1,.,.,.,7&0[16.7 µM],5,7,-1&-4&-6,.,
c1coc(C2OCC3(CO2)COC(c2ccco2)OC3)c1 (configuration not stated),-18,-6,-5,-6,-1,3,.,i,
COCc1[nH]nc2c1C1(C(=O)N(C)c3ccccc31)C(C#N)=C(N)O2 (configuration not stated),-2,6,13,-9,-1,0,-14,i,
CCOC(=O)c1c(S(=O)(=O)NCC(=O)Nc2cc(C)ccn2)c(C)n(C)c1C,4,7,-6,9,-3,1,-7,i,
S=c1[nH]cc(-c2ccc(Cl)cc2)n1-c1ccccc1,-11,-5,4,-8,-1,0,.,i,
COc1ccc(OC)c(CN2CCN(S(=O)(=O)c3ccccc3)CC2)c1,-2,.,.,-47,-2,-1,-21,i,

# Compound activity: PubChem BioAssay, several laboratories
